HIV Env fusion: inhibitors of HIV Env-mediated cell fusion | HeLa-JRFL Env/CEM21 cell fusion, luciferase | inhibition, % at 12.3 µM | actives 1.1% (n = 360,000);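 active means mean replicate inhibition score of at least 50 and every replicate individually at or above 50; inconclusive means only one of the two criteria met; inactive means mean below 50 and not all replicates reaching 50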;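 further: 0% = plate neutral controls and 100% = maraviroc near 300 nM; one replicate is shown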
Yeast UUG start: modulators of start codon recognition fidelity in yeast. AID 602363. actives 0.13% (n = 350,000). activity score, % at 18.7 µM. S. cerevisiae UUG-firefly luciferase reporter, luminescence/redox ratio;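 active means replicate mean at a twofold rise or more, about +100% in these data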;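 further: firefly luciferase made from a UUG start codon reports start codon fidelity; reporter light over untreated wells divided by growth signal over untreated wells; some hits fall short of that in this replicate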
* marks the source's active call; other numbers are inactive results; ? = inconclusive; [ ] = dose if it differs, or a comment. This is a subset, so the mix of outcomes need not match the whole.

Molecule,Yeast UUG start,HIV Env fusion
C[C@H](CO)N1C[C@H](C)[C@@H](CN(C)Cc2ccc(Cl)c(Cl)c2)OCCCC[C@H](C)Oc2ccc(NC(=O)c3ccccc3)cc2C1=O,3.5,18.7[16.7 µM]
CCNC(=O)C[C@@H]1C=C[C@H](NC(=O)C2CC2)[C@@H](CO)O1,-16.7,-4.5[16.7 µM]
O=C(C[C@@H]1C=C[C@@H](NC(=O)C2CC2)[C@@H](CO)O1)Nc1ccccc1,-9.0,-6.0[16.7 µM]
CCCNC(=O)C[C@H]1C[C@@H]2c3cc(NS(=O)(=O)c4ccc(OC)cc4)ccc3O[C@@H]2[C@H](CO)O1,-7.9,-11.3[16.7 µM]
COc1ccc(S(=O)(=O)Nc2cccc3c2O[C@@H](CN(C)Cc2ccc(Cl)c(Cl)c2)[C@H](C)CN([C@@H](C)CO)C3=O)cc1,5.4,-38.4[16.7 µM]
CCC(=O)Nc1ccc2c(c1)C(=O)N(C)C[C@H](OC)[C@@H](C)CN(Cc1ccccc1OC)[C@H](C)CO2,6.6,-3.5[16.7 µM]
Cc1ccccc1NC(=O)C[C@H]1CC[C@H]2[C@@H](COc3ccc(NC(=O)C4CCC4)cc3C(=O)N2C)O1,-1.5,-10.5[16.7 µM]
C[C@@H]1CN([C@@H](C)CO)C(=O)c2cc(NC(=O)Nc3ccc4c(c3)OCO4)ccc2O[C@@H](C)CCCCO[C@@H]1CN(C)C(=O)Cc1ccccc1,6.0,-35.1[16.7 µM]

Molecule,Yeast UUG start,HIV Env fusion
CN(C)C(=O)C[C@@H]1C=C[C@@H](NC(=O)NC2CCCC2)[C@H](CO)O1,-0.9,-9.1[16.7 µM]
C[C@@H]1CN([C@H](C)CO)C(=O)c2cc(-c3ccccc3)cnc2O[C@H]1CN(C)C(=O)c1ccccc1F,-4.1,-2.7[16.7 µM]
COc1ccc(NC(=O)N(C)C[C@H]2OCCCC[C@H](C)Oc3ccc(NC(=O)Nc4cccc5ccccc45)cc3C(=O)N([C@@H](C)CO)C[C@H]2C)cc1,13.9,-11.3[16.7 µM]
COc1ccc(S(=O)(=O)N[C@H]2C=C[C@H](CC(=O)N3CCC(Cc4ccccc4)CC3)O[C@@H]2CO)cc1,8.3,?
C[C@@H]1CN([C@H](C)CO)C(=O)c2cc(NC(=O)Nc3ccc4c(c3)OCO4)ccc2O[C@@H]1CN(C)C(=O)Nc1ccc2c(c1)OCO2,11.7,6.1[16.7 µM]
N#C[C@H]1[C@@H](c2ccc(C#CC3CC3)cc2)[C@@H](CO)N1C(=O)Nc1ccc(F)cc1,-1.6,3.4[16.7 µM]
Cc1ccc(S(=O)(=O)N[C@H]2CC[C@H](CC(=O)NCc3ccccc3F)O[C@H]2CO)cc1,20.6,7.6[16.7 µM]
C/C=C/c1ccc2c(c1)O[C@@H](CN(C)C(=O)C1CCOCC1)[C@@H](C)CN([C@H](C)CO)S2(=O)=O,-3.0,15.9[16.7 µM]

Molecule,Yeast UUG start,HIV Env fusion
O=C(C[C@H]1C[C@@H]2c3cc(NC(=O)C4CCC4)ccc3O[C@@H]2[C@H](CO)O1)NCc1cccnc1,-15.8,26.0[16.7 µM]
C[C@H]1CN([C@@H](C)CO)S(=O)(=O)c2ccc(-c3cncnc3)cc2O[C@@H]1CN(C)C(=O)C1CCCCC1,254.2*,-20.5[16.7 µM]
C[C@@H]1CN([C@H](C)CO)S(=O)(=O)c2ccc(-c3ccccc3)cc2O[C@H]1CN(C)C(=O)CC1CC1,-1.7,-19.9[16.7 µM]
CC(C)NC(=O)N(C)C[C@@H]1Oc2c(cccc2N(C)C)C(=O)N([C@H](C)CO)C[C@H]1C,9.0,5.8[16.7 µM]
C[C@@H]1CCCCO[C@@H](CN(C)C(=O)C2CCCCC2)[C@@H](C)CN([C@@H](C)CO)C(=O)c2cc(NS(=O)(=O)c3ccc(Cl)cc3)ccc2O1,2.4,-37.3[16.7 µM]
CN1CCN(C(=O)C[C@H]2C[C@@H]3c4cc(NC(=O)NC5CCCCC5)ccc4O[C@@H]3[C@H](CO)O2)CC1,-4.1,-15.2[16.7 µM]
C/C=C/c1ccc2c(c1)O[C@H](CN(C)C(C)=O)[C@H](C)CN([C@H](C)CO)S2(=O)=O,13.2,5.7[16.7 µM]
C[C@H]1CN([C@@H](C)CO)C(=O)c2cc(C#CC3CCCCC3)cnc2O[C@H]1CN(C)S(C)(=O)=O,10.3,-12.8[16.7 µM]

Molecule,Yeast UUG start,HIV Env fusion
C/C=C/c1ccc2c(c1)O[C@H](CN(C)C(=O)Nc1cc(F)ccc1F)[C@H](C)CN([C@@H](C)CO)S2(=O)=O,-7.1,13.0[16.7 µM]
C[C@H]1CCCCO[C@H](CN(C)C(=O)NC2CCCCC2)[C@@H](C)CN([C@@H](C)CO)C(=O)c2cc(NC(=O)Nc3ccc(C(F)(F)F)cc3)ccc2O1,-17.4,39.6[16.7 µM]
NCC[C@H]1CC[C@H](NC(=O)Cc2ccncc2)[C@@H](CO)O1,0.2,-0.7[16.7 µM]
C[C@@H]1CCCCO[C@@H](CN(C)Cc2ccc(C(F)(F)F)cc2)[C@H](C)CN([C@@H](C)CO)C(=O)c2cc(NC(=O)C3CCCCC3)ccc2O1,14.1,17.3[16.7 µM]
C[C@H](CO)N1C[C@H](C)[C@@H](CN(C)S(=O)(=O)c2ccc(Cl)cc2)OCCCC[C@H](C)Oc2ccc(NC(=O)Nc3ccc4c(c3)OCO4)cc2C1=O,-16.7,-0.1[16.7 µM]
CCCNC(=O)C[C@H]1CC[C@H]2[C@H](COc3ccc(NC(=O)c4cccc(F)c4)cc3C(=O)N2C)O1,1.2,4.8[16.7 µM]
CNC(=O)C[C@@H]1CC[C@@H]2[C@H](COc3ccc(NC(=O)Nc4c(C)noc4C)cc3C(=O)N2C)O1,-5.3,1.9[16.7 µM]
CCS(=O)(=O)NCC[C@H]1CC[C@H](NC(=O)C2CCC2)[C@H](CO)O1,-7.5,-9.2[16.7 µM]

Two entries drawn at random from the list so far, as already listed:
Molecule,Yeast UUG start,HIV Env fusion
CCCNC(=O)C[C@H]1CC[C@H]2[C@H](COc3ccc(NC(=O)c4cccc(F)c4)cc3C(=O)N2C)O1,1.2,4.8[16.7 µM]
C[C@H](CO)N1C[C@H](C)[C@@H](CN(C)S(=O)(=O)c2ccc(Cl)cc2)OCCCC[C@H](C)Oc2ccc(NC(=O)Nc3ccc4c(c3)OCO4)cc2C1=O,-16.7,-0.1[16.7 µM]

Going on with the list.
Molecule,Yeast UUG start,HIV Env fusion
CCC(=O)N(C)C[C@H]1Oc2ncc(C#Cc3ccc(OC)cc3)cc2C(=O)N([C@@H](C)CO)C[C@H]1C,1.1,21.4[16.7 µM]
C[C@H](CO)N1C[C@H](C)[C@@H](CN(C)Cc2cccnc2)Oc2cc(-c3ccncc3)ccc2S1(=O)=O,-11.1,-12.2[16.7 µM]
COc1ccc(NC(=O)N(C)C[C@H]2OCCCC[C@@H](C)Oc3ccc(NC(=O)Nc4ccc5c(c4)OCO5)cc3C(=O)N([C@H](C)CO)C[C@H]2C)cc1,1.5,-32.7[16.7 µM]
COCC(=O)Nc1ccc2c(c1)C(=O)N(C)C[C@@H](OC)[C@H](C)CN(C(=O)CC1CC1)[C@H](C)CO2,-5.6,-6.4[16.7 µM]
Cc1ccc(S(=O)(=O)Nc2cccc3c2O[C@@H](CN(C)C(=O)Nc2ccc(F)cc2)[C@@H](C)CN([C@H](C)CO)C3=O)cc1,-4.7,-50.4[16.7 µM]
COc1ccc(NC(=O)N2C[C@H](O)COC[C@H]3O[C@@H](CC(=O)N4CCCCC4)CC[C@@H]32)cc1,-13.8,2.1[16.7 µM]
O=C(N1CCCCC1)[C@]1(Cc2ccccc2)N=C(c2ccc(OCCCO)cc2)O[C@@H]1c1ccccc1,2.0,18.4[16.7 µM]
CCCC#Cc1cnc2c(c1)C(=O)N([C@@H](C)CO)C[C@H](C)[C@@H](CN(C)C(=O)C1CCCCC1)O2,0.9,-21.3[16.7 µM]

Molecule,Yeast UUG start,HIV Env fusion
CCCNC(=O)N1C[C@@H](C)[C@@H](OC)CN(C)C(=O)c2ccc(NC(C)=O)cc2OC[C@H]1C,8.9,4.9[16.7 µM]
COc1ccc(S(=O)(=O)N(C)C[C@@H]2OCCCC[C@H](C)Oc3ccc(NS(=O)(=O)c4ccc(F)cc4)cc3C(=O)N([C@@H](C)CO)C[C@H]2C)cc1,13.1,-44.3[16.7 µM]
C[C@H](CO)N1C[C@H](C)[C@H](CN(C)C)Oc2cc(-c3ccc(F)cc3)ccc2S1(=O)=O,-13.6,-3.1[16.7 µM]
C[C@@H]1CCCCO[C@H](CN(C)Cc2ccc3c(c2)OCO3)[C@H](C)CN([C@@H](C)CO)C(=O)c2cc(NS(=O)(=O)c3ccc(F)cc3)ccc2O1,38.7,7.1[16.7 µM]
COc1ccc(CN(C)C[C@H]2OCCCC[C@H](C)Oc3ccc(NS(=O)(=O)c4cccs4)cc3C(=O)N([C@H](C)CO)C[C@@H]2C)cc1,30.8,-9.2[16.7 µM]
CC(C)C#Cc1ccc2c(c1)O[C@H](CN(C)C(=O)CC1CC1)[C@H](C)CN([C@@H](C)CO)S2(=O)=O,-16.3,-16.8[16.7 µM]
O=C(C[C@H]1C[C@H]2c3cc(NC(=O)Cc4ccncc4)ccc3O[C@H]2[C@@H](CO)O1)NCc1ccncc1,-0.4,93.4*[16.7 µM]
CC(C)NC(=O)Nc1ccc2c(c1)C(=O)N([C@@H](C)CO)C[C@@H](C)[C@H](CN(C)C(=O)Nc1ccc(C(F)(F)F)cc1)OCCCC[C@H](C)O2,5.9,19.4[16.7 µM]

Molecule,Yeast UUG start,HIV Env fusion
O=C(C[C@H]1CC[C@@H](NC(=O)C2CCOCC2)[C@H](CO)O1)Nc1ccc(-c2ccccc2)cc1,1.5,10.3[16.7 µM]
C[C@H](CO)N1C[C@H](C)[C@H](CN(C)C(=O)Nc2ccc(F)cc2)Oc2ccc(N(C)C)cc2C1=O,4.8,10.5[16.7 µM]
C[C@@H]1CN([C@H](C)CO)C(=O)c2cc(C#CCN(C)C)cnc2O[C@H]1CN(C)C(=O)CN1CCOCC1,-12.8,9.2[16.7 µM]
Cc1ccc(-c2cnc3c(c2)C(=O)N([C@@H](C)CO)C[C@H](C)[C@@H](CN(C)CC2CCCC2)O3)cc1,-2.3,1.9[16.7 µM]
CC(C)CC#Cc1cnc2c(c1)C(=O)N([C@@H](C)CO)C[C@@H](C)[C@H](CN(C)Cc1ccc(F)cc1)O2,4.3,22.0[16.7 µM]
C[C@@H]1CN([C@@H](C)CO)C(=O)Cc2cc(NS(=O)(=O)c3ccccc3)ccc2O[C@H]1CN(C)Cc1ccc(C(=O)Nc2ccccc2N)cc1,-4.9,23.1[16.7 µM]
CC(C)NC(=O)Nc1ccc2c(c1)C(=O)N([C@H](C)CO)C[C@@H](C)[C@H](CN(C)S(=O)(=O)c1ccc(Cl)cc1)OCCCC[C@@H](C)O2,-1.2,-0.7[16.7 µM]
Cc1noc(C)c1S(=O)(=O)N(C)C[C@@H]1OCCCC[C@H](C)Oc2ccc(NS(C)(=O)=O)cc2C(=O)N([C@H](C)CO)C[C@@H]1C,-8.6,-36.3[16.7 µM]

Molecule,Yeast UUG start,HIV Env fusion
Cc1noc(C)c1S(=O)(=O)Nc1cccc2c1O[C@H](CN(C)C(=O)Nc1ccccc1)[C@H](C)CN([C@H](C)CO)C2=O,-1.9,-0.6[16.7 µM]
CO[C@H]1CN(C)C(=O)c2cc(NS(=O)(=O)c3cccc(C)c3)ccc2OC[C@H](C)NC[C@@H]1C,-8.1,-4.6[16.7 µM]
COc1ccc(NC(=O)N(C)C[C@@H]2Oc3ccc(NC(=O)c4ccncc4)cc3CC(=O)N([C@H](C)CO)C[C@H]2C)cc1,-16.1,-4.7[16.7 µM]
COC(=O)C[C@@H]1CC[C@@H]2[C@@H](COc3ccc(NC(=O)c4ccccc4OC)cc3C(=O)N2C)O1,-0.7,7.5[16.7 µM]
C[C@@H](O)C#Cc1ccc2c(c1)O[C@H](CN(C)C(=O)C1CC1)[C@@H](C)CN([C@@H](C)CO)S2(=O)=O,-1.5,-5.6[16.7 µM]
Cc1noc(C)c1NC(=O)N(C)C[C@H]1OCCCC[C@H](C)Oc2ccc(NS(=O)(=O)c3ccc(Cl)cc3)cc2C(=O)N([C@@H](C)CO)C[C@@H]1C,5.3,-63.6[16.7 µM]
C[C@H]1CN([C@@H](C)CO)C(=O)c2cc(NC(=O)C3CCCCC3)ccc2O[C@H]1CN(C)C(=O)Nc1ccc(C(F)(F)F)cc1,-5.9,6.9[16.7 µM]
CN(C)CCCN1C(=O)[C@@]2(Cc3ccccc31)c1ccccc1C(=O)N(Cc1ccccc1C(F)(F)F)[C@H]2c1ccc(CO)cc1,172.6*,9.5[16.7 µM]

Molecule,Yeast UUG start,HIV Env fusion
Cc1ccc(S(=O)(=O)Nc2ccc3c(c2)C(=O)N([C@H](C)CO)C[C@@H](C)[C@H](CN(C)S(=O)(=O)c2ccccc2)O3)cc1,-0.5,13.2[16.7 µM]
C[C@@H]1CCCCO[C@H](CN(C)C(=O)CCC(F)(F)F)[C@H](C)CN([C@@H](C)CO)C(=O)c2cc(NS(=O)(=O)c3ccccc3)ccc2O1,-0.9,17.7[16.7 µM]
C[C@H](CO)N1C[C@H](C)[C@H](CN(C)S(C)(=O)=O)Oc2ccc(NS(C)(=O)=O)cc2CC1=O,-18.0,41.4[16.7 µM]
CCCNC(=O)N(C)C[C@H]1Oc2cc(Br)ccc2S(=O)(=O)N([C@H](C)CO)C[C@H]1C,17.6,-2.1[16.7 µM]
Cc1noc(C)c1NC(=O)Nc1cccc2c1O[C@H](CN(C)Cc1ccc(Cl)c(Cl)c1)[C@@H](C)CN([C@H](C)CO)C2=O,43.5,-34.8[16.7 µM]

Source: PubChem BioAssay (Broad Institute)
